Screening data deposited in PubChem by several laboratories.
Calb FLC – C. albicans growth inhibition with fluconazole, primary screen, CaCi-2 strain, Alamar Blue fluorescence; C. albicans CaCi-2 (fluconazole-resistant clinical isolate) + fluconazole, 48 h; growth inhibition, % (test concentration not listed); hit rate 0.57% among 300,000;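 active = most replicates above 75%; inconclusive = exactly half above 75%; inactive = most below 75%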;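 also: all wells also contain fluconazole at 8 µg/ml as a sub-toxic cotreatment; 0% = median of DMSO wells and 100% = median of geldanamycin control wells; wells of about 8 µL received 7.5 nL stock; the first replicate is given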
Vif TR-FRET – inhibitors of Vif binding to APOBEC3G peptide, primary screen, biochemical, TR-FRET, GST-Vif 1-94, biotin-A3G peptide, dose response retest (AID 1117319); TR-FRET GST-Vif / biotin-A3G peptide binding; higher % means a stronger effect; test concentration not given here; strong numbers were not always called active; one-dose inhibition, %; IC50 in µM for titrated hits; hit rate 0.57% among 260,000;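 active = above the screen mean plus three standard deviations and confirmed in dose response; inconclusive = results disagree or hit not tested in dose response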;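 also: Vif residues 1-94 fused to GST binding biotinylated APOBEC3G peptide 110-148; 0% = full assay without inhibitor and 100% = GST in place of GST-Vif; retest series ran down from 100 µM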
RanGTP-Impb inh – inhibitors of RanGTP-importin-beta interaction, primary screen, biochemical, FRET, CFP-Ran, YFP-importin-beta, homogeneous. Ran GTPase (GTP-bound) - importin-beta complex. cell-free CFP-Ran/YFP-importin-beta FRET ratio. inhibition, % (concentration not given with the values). hit rate 1.1% among 300,000;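 active = most replicates above 15%; inconclusive = exactly half above 15%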;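 also: 0% = DMSO wells and 100% = Ran loaded with GDP instead of GTP; wells of about 40 µL received 100 nL stock; the first replicate is given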
HNF4A DNA FP – change in binding of human HNF4A to DNA, primary screen, biochemical, fluorescence polarization, FITC-DNA | 1 h | activity change, % at 10 µM | hit rate 0.3% among 360,000 | AID 1224865, 2016; in the data active = activity change above about 30%, passing the limit was not always enough;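 also: controls were the assay level and a saturating level of protein; the project sought stronger binding though the title names inhibitors; some compounds called inactive have numbers as strong as hits; positive values seem to mean higher polarization but the record does not say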
Target sequence (P41235 whole entry, looked up): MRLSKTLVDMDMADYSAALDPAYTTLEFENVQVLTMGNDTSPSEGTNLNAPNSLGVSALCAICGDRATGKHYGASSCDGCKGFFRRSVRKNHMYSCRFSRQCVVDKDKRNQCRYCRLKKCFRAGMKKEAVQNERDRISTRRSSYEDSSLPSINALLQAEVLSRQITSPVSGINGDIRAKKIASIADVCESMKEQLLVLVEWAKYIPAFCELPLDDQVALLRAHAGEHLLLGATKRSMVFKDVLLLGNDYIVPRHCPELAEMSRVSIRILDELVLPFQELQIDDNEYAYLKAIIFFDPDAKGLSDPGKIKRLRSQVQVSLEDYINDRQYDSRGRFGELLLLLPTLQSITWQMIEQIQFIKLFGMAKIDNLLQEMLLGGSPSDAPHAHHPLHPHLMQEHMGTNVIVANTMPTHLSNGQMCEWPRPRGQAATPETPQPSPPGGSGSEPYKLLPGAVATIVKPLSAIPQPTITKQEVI
ALR H2O2 inh – inhibitors of human ALR sulfhydryl oxidase, primary screen, biochemical, H2O2 detection, HRP-luminol luminescence, single point; FAD-linked sulfhydryl oxidase ALR (Homo sapiens), P55789; purified ALR, DTT oxidation; inhibition, % (test concentration not listed); hit rate 3.8% among 290,000; AID 485317, 2010;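 active = mean and each replicate at 75% or more; inconclusive = only one of the two met; inactive = neither met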;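 also: stock transfer was 7.5 nL into about 7.5 µL; 0% = neutral wells and 100% = wells with inactivated enzyme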
Target sequence (P55789 whole entry, looked up): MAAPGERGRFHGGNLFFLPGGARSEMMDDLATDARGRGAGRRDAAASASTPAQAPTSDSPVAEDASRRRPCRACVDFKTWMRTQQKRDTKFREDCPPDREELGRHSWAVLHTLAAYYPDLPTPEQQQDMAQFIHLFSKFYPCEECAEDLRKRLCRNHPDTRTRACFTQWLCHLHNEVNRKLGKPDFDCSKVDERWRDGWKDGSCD
Beta2AR agonist – beta2AR agonists driving receptor internalization, primary screen, cell-based, FAP fluorogen, flow cytometry; Am2.2-beta2AR cells; reference of the scale not given here; response, % (test concentration not listed); hit rate 0.43% among 340,000;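 active = response above a set limit, near 3 SD of response in nonfluorescent compounds, cut at about 42% in these data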;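 also: stock transfer was 100 nL into about 11 µL; a reference agonist was the positive control; negative values mostly stem from fluorescent compounds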
Target sequence (P07550 whole entry, looked up): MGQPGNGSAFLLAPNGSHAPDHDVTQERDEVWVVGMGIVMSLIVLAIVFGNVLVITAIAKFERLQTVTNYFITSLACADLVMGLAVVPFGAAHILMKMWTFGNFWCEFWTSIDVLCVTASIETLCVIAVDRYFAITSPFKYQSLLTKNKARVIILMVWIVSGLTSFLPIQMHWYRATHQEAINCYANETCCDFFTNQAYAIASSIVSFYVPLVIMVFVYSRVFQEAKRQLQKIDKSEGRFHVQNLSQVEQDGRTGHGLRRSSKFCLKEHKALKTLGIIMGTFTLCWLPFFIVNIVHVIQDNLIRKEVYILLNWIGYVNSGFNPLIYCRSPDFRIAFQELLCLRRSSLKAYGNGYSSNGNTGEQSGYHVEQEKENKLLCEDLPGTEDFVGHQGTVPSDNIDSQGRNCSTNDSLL
LANA-H2A inh – blockers of LANA interaction with H2A/H2B – biochemical, FP readout, HTS, primary screen; Protein LANA1 (Human herpesvirus 8 type P (isolate GK18)), Q9QR71; cell-free LANA-H2A/H2B peptide, fluorescence polarization; inhibition, % (no concentration beside the values); hit rate 0.6% among 320,000; in the data active = inhibition mostly above about 10%, no sharp cut-off; inactive = mostly below about 6.7%;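 also: stock transfer was 7.5 nL into about 10 µL; 0% = median of vehicle wells and 100% = median of positive control wells; one replicate is shown; the record names a cut of 25% in any replicate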
An asterisk follows results filed as active; ? = inconclusive; nt = no result given; & = joins results of further samples.

SMILES	Calb FLC	Vif TR-FRET	RanGTP-Impb inh	HNF4A DNA FP	ALR H2O2 inh	Beta2AR agonist	LANA-H2A inh
O=C(CN1CCN(Cc2ccc(Cl)cc2)CC1)N/N=C/C=C/c1ccccc1[N+](=O)[O-]	13	nt	5.2	-1.9	-4	-11	-3.2
COc1ccc(/C=N/NC(=O)c2cc(C(C)(C)C)[nH]n2)cc1COc1ccc(F)cc1F	9	2%	51*	-5.9	-6	11	-0.2
O=C(C1CCCN(S(=O)(=O)c2ccc([N+](=O)[O-])cc2)C1)N1CCCCC1 (centres undefined)	-10	-4%	-0.8	-1.2	-11	-8	3.7
Cc1ccc(C(=O)N[C@@H](Cc2ccccc2)C(=O)N2CCC3(CC2)NCCc2[nH]cnc23)cc1C	14	nt	2.5	2.5	nt	-2	0.5
CC(C)(C)NC(=O)CN(CC1CCCO1)C(=O)CNS(=O)(=O)c1ccc(F)cc1 (centres undefined)	10	nt	5.3	4.3	4	13	-0.2
COc1ccc(S(=O)(=O)N(C(=O)c2ccncc2)c2ccc3oc4c(c3c2)CCCC4)cc1	9	nt	0.0	-3.2	nt	-9	nt
CCOC(=O)C1CCN(c2c(C(=O)c3ccccc3)cnc3ccc(Cl)cc23)CC1	8	4%	-2.3	0.9	-6	-2	-0.6
COc1ccc(Cl)cc1C(=O)Nc1ccc(NC(C)=O)cc1	4	0%	1.3	-0.7	-3	-4	-1.4
COc1cc(C(=O)NCC(c2cccnc2)N2CCN(C)CC2)cc(OC)c1OC (centres undefined)	-17	20%	3.6	0.1	-17	5	-1.1
CCCn1nnnc1NCc1ccc(N2CCCC2)cc1	10	-1%	2.4	-1.9	9	0	1.3
CCCCCn1c(CCC(=O)Oc2ccccc2OC)nc2c1c(=O)[nH]c(=O)n2CCCC	1	1%	5.9	1.7	-15	6	0.8
Cc1cccc(Nc2c(-c3ccc(N4CCOCC4)cc3)nc3ncccn23)c1	-8	nt	0.3	1.8	95*	9	2.0
CCN(CC)S(=O)(=O)c1ccc(OC)c(NC(=O)c2cccs2)c1	8	1%	1.1	-0.3	-4	-17	0.3
Cc1ccc(C(=O)NCCN(C)C)cc1C	2	10%	-0.6	-0.9	-4	4	6.5
C/C(N)=C(/C#N)C(=O)COC(=O)CCSc1ccccc1	10	12%&65%	-1.0	-2.7&4.1	-6	10&0	2.0
CCOC(=O)N(C)c1ccc(C(O)(C(F)(F)F)C(F)(F)F)cc1	-12	3%	3.1	-0.6	0	-6	-1.5
O=C(CN(Cc1ccccc1)C(=O)CCC(=O)Nc1ccccn1)NCc1ccc(F)cc1	-7	nt	1.2	2.5	nt	-4	5.1
CCOC(=O)N=S(N)(=O)c1ccc(Cl)cc1 (centres undefined)	9	?	1.2	3.0	0	0	3.9
CN(CC(=O)Nc1nc2ccccc2s1)S(=O)(=O)c1ccc(Br)cc1	22	5%	-0.4	3.9	-4	0	2.0
O=C(CSc1nnc(Cc2ccccc2)o1)Nc1ccc(N2CCOCC2)cc1	nt	nt	nt	1.3	63	-3	0.7
Nc1cccc(Nc2nc(OC(C(F)(F)F)C(F)(F)F)nc(OC(C(F)(F)F)C(F)(F)F)n2)c1	4	-1%&4%	-0.1	-1.8	0	22	2.1
Cc1ccc(N=c2c([N+](=O)[O-])nn(-c3ccc(Cl)cc3)n2O)cc1C	32	12%	1.5	-0.3	nt	-9	1.7
N#Cc1nc(Cl)c(Cl)c(NN)c1Cl	-16	4%	4.0	1.4	32	-1	-1.5
Cc1ccc(S(=O)(=O)NC(=O)Nc2ccccc2F)cc1	nt	21%	nt	4.6	13	10	1.6
COc1ccccc1NC(NC(=O)c1ccco1)C(=O)c1ccccc1 (centres undefined)	4	-1%	0.8	-0.8	-2	5	1.7
Cc1nnc(NC(=O)c2cccc(S(=O)(=O)N3CCc4ccccc43)c2)s1	22	0%	3.7	-2.8	5	3	6.2
N#Cc1c(Nc2ccccc2)c(C=NCCN2CCOCC2)c[nH]c1=O	60	-1%	6.5	-7.8	-2	-3	3.5
O=C(Nc1ccc(Cl)cc1)N1CCOCC1	-1	1%	-0.8	0.8	nt	0	8.9
CC(C)C(NS(=O)(=O)c1ccc2c(c1)C(C)(C)C(=O)N2C)C(=O)NCc1ccc(F)cc1 (centres undefined)	-6	-5%	-0.9	0.3	-3	1	0.5
Clc1ccccc1CSc1ncn(-c2ccccc2)n1	-16	2%	?	-0.6	-3	-15	-1.0

Record cards (already shown):
COc1cc(C(=O)NCC(c2cccnc2)N2CCN(C)CC2)cc(OC)c1OC (centres undefined) as listed: Calb FLC = -17; Vif TR-FRET = 20%; RanGTP-Impb inh = 3.6; HNF4A DNA FP = 0.1; ALR H2O2 inh = -17; Beta2AR agonist = 5; LANA-H2A inh = -1.1
CC(C)(C)NC(=O)CN(CC1CCCO1)C(=O)CNS(=O)(=O)c1ccc(F)cc1 (centres undefined) as listed: Calb FLC = 10; Vif TR-FRET = nt; RanGTP-Impb inh = 5.3; HNF4A DNA FP = 4.3; ALR H2O2 inh = 4; Beta2AR agonist = 13; LANA-H2A inh = -0.2

The results go on.
SMILES	Calb FLC	Vif TR-FRET	RanGTP-Impb inh	HNF4A DNA FP	ALR H2O2 inh	Beta2AR agonist	LANA-H2A inh
O=C(CN1C(=O)c2cccnc2Oc2ccc(Cl)cc21)NCCc1ccccc1	2	-6%	2.0	2.7	-12	1	-0.8
Cc1cc(Cl)cc(C)c1OCCCCN1CCOCC1	?	3%	-3.1	23	-10	3	2.7
O=[N+]([O-])c1cccc(/C=C2\CCC(/C=N/Nc3ccc4ccccc4n3)=C2N2CCOCC2)c1	-6	3%	-0.7	0.6	-8	12	2.9
Cc1cc(NC(=O)c2cc3ncc(Br)cn3n2)no1	14	3%	-0.9	-0.4	-4	-15	-0.3
CC(C(=O)Nc1ccc2c(c1)OCO2)N(C)CC(=O)Nc1ccccc1Cl (centres undefined)	nt	nt	nt	-3.7	-5	-8	-6.2
O=C(Cn1c(CO)nc2ccccc21)NC1CCCCCC1	-25	11%	-1.1	0.3	1	3	0.7
CC1SCC(=O)N(CC(=O)NCCc2ccccc2)C1=O (centres undefined)	-5	3%	0.3	4.7	-4	-4	-1.2
CCOC(=O)c1sc(=NC(=O)c2cccc(OC)c2)n(C)c1C	0	-2%	0.0	-1.0	-16	5	-1.4
COc1ccc(NC(=O)c2cc([N+](=O)[O-])ccc2O)cc1	83*	-2%	-3.6	11	5	10	1.6
COC(=O)c1ccc(N2CCOCC2)c(NC(=O)c2ccc3c(c2)OCCO3)c1	-3	-9%	-4.3	3.7	-16	3	-0.5
CCOC(=O)C(=O)/C(C#N)=C/Nc1ccccc1	-1	6%	0.9	3.6	-6	1	-0.5
CC(Oc1ccc2ccc(=O)oc2c1)C(=O)NC1CC(C)(C)NC(C)(C)C1 (centres undefined)	-2	-4%	1.1	-1.3	2	10	1.9
CCOC(=O)c1c(C)[nH]c(C(=O)CSc2nccc(C)n2)c1C	-16	nt	-2.7	1.1	2	3	-4.3
O=C(Nc1ccc(NC(=O)c2ccco2)nc1)c1ccco1	-10	-4%	1.6	0.0	39	-11	5.5
Cc1cc(C)cc(OCC(=O)NCCc2nc3ccccc3[nH]2)c1	6	nt	-0.1	2.6	-7	-7	-5.0
O=C(CCl)N(CCc1ccccc1)CCc1ccccc1	-12	nt	-1.4	-1.5	71	16	-1.7
CCC(C)(C)NC(=O)CN(CCc1cccc(C)c1)C(=O)c1csnn1	9	-4%	7.0	-0.3	-6	-6	1.7
CC(=O)Nc1ccc(S(=O)(=O)N/N=C/c2ccc(C)s2)cc1	8	-6%	3.8	-1.0	nt	-1	1.7
CCCn1c2ccccc2c2nnc(SCC(=O)Nc3nnc(CC(=O)OCC)s3)nc21	4	-12%	6.7	0.4	1	-4	2.1
COc1ccc(C2CC(O)(c3ccccc3)Oc3cc(OC)c(OC)c(OC)c32)cc1 (centres undefined)	10	nt	-1.7	-1.5	nt	-17	0.2
N/C(CC1CC1(Cl)Cl)=N\OC(=O)c1ccccc1 (centres undefined)	-7	nt	6.4	4.3	-6	2	-3.4
O=C(N/N=C/c1ccc(OCCCF)cc1)c1ccc(C(F)(F)F)cc1	9	2%	-4.4	-0.2	-9	9	-3.4
CCn1cc(C(=O)N2CCN(c3cccc(C)c3C)CC2)c(=O)c2ccc(C)nc21	3	32%	-4.0	1.2	-2	-2	-2.1
COc1cc(/C=N/N2CCN(C3c4ccccc4-c4ccccc43)CC2)cc(OC)c1O	30	?	0.9	1.4	0	-5	-0.1
NC(=O)c1nn(-c2cccc(Cl)c2)c(=O)cc1O	-38	2%	0.2	0.3	3	4	3.1
O=C(O)CNC(=O)/C(=C\c1ccco1)NC(=O)c1ccco1	-7	12%	6.7	-6.3	-27	-8	1.6
CN(C)S(=O)(=O)c1ccc(NC(=O)CN2C(=O)NC(Cc3ccccc3)C2=O)cc1 (centres undefined)	nt	nt	nt	-4.1	2	-2	-1.2
O=C(Nc1nc(-c2ccc3ccccc3c2)cs1)c1ccc(N2C(=O)CCC2=O)cc1	19	-24%	3.0	-3.2	-10	-11	-1.4
CCN(CC)c1ccc(C=Nc2cc(C)ccc2C)c(O)c1	-13	-7%	2.5	2.0	-1	26	-1.8
COc1cccc(C(C(=O)NC2CCCC2)N(Cc2ccco2)C(=O)c2ccco2)c1OC (centres undefined)	17	1%	2.7	-3.3	-2	-1	-0.3

Part of the list above, reduced to Beta2AR agonist and RanGTP-Impb inh.
canonical_smiles	Beta2AR agonist	RanGTP-Impb inh
CC(C)C(NS(=O)(=O)c1ccc2c(c1)C(C)(C)C(=O)N2C)C(=O)NCc1ccc(F)cc1 (centres undefined)	1	-0.9
Clc1ccccc1CSc1ncn(-c2ccccc2)n1	-15	?
O=C(CN1C(=O)c2cccnc2Oc2ccc(Cl)cc21)NCCc1ccccc1	1	2.0
Cc1cc(Cl)cc(C)c1OCCCCN1CCOCC1	3	-3.1
O=[N+]([O-])c1cccc(/C=C2\CCC(/C=N/Nc3ccc4ccccc4n3)=C2N2CCOCC2)c1	12	-0.7

Later entries
SMILES	Calb FLC	Vif TR-FRET	RanGTP-Impb inh	HNF4A DNA FP	ALR H2O2 inh	Beta2AR agonist	LANA-H2A inh
Cc1ccc(C(=O)N2CCCC2)cc1S(=O)(=O)N1CCOCC1	-7	-3%	2.5	-2.4	5	-2	5.9
CCOc1ccc(-c2nc(CSCC(=O)NCCN3CCOCC3)c(C)o2)cc1	-2	-10%	7.6	3.7	99*	6	-1.5
Cc1oc2nc(SCC(=O)NCCCO)nc(N)c2c1C	1	-1%	-5.7	-4.0	2	5	-4.7
O=C(Nc1ccc(F)cc1)C1CC(=O)n2c(nc3ccccc32)N1 (centres undefined)	0	10%	1.6	0.0	1	3	-1.0
COc1cc(OC)cc(-c2c(-c3cccs3)c3cc(-c4ccc(OC)c(OC)c4)ccc3n2C)c1	nt	nt	nt	2.2	-5	2	-1.2
COc1ccccc1C(=O)NC(=O)CSc1nnc(C)s1	2	nt	2.9	0.5	14	-1	2.2
CCCC(CCC)=NNC(=O)c1ccccc1F	-2	-8%	?	-2.1	-5	10	-1.9
CC(=O)NC1C(=O)N=C(SCC(=O)Nc2c(C)cccc2C)NC1=O (centres undefined)	4	12%	0.8	-0.9	6	-2	0.0
CC1(C)OC(=O)C(=Cc2ccc(-c3ccc(Cl)c(C(=O)O)c3)o2)C(=O)O1	-1	?	-1.6	-3.1	54	4	7.0
CC(=O)Nc1ccc(OC(=O)Cc2ccc(Cl)cc2)cc1	-8	nt	-0.1	3.6	5	-1	1.3
